Screening results: PubChem BioAssay, several laboratories
Mtb H37Rv – M. tuberculosis H37Rv growth inhibitors, H37Rv strain (AID 1626); M. tuberculosis H37Rv growth inhibition; higher % means a stronger effect; one-dose inhibition, % at 10 µM; IC50 in µM for titrated hits; hit rate 0.95% among 220,000;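 active = confirmed in a dose series; inconclusive = inhibition above 80% but not taken into the dose series; inactive = below 80% or under 30% at every dose of the series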;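 note: bacteria incubated seven days before Alamar blue readout; 0% = bacteria only wells and 100% = bacteria with antibiotic wells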
Arbovirus anti – antivirals against arbovirus infection; arbovirus infection cell-based antiviral screen; inhibition, % at 10 µM; hit rate 0.37% among 200,000;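 active = inhibition from about 30%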;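 note: bluetongue infection of BSR cells; cell survival read as ATP light after 72 h; 0% = infected wells without compound and 100% = uninfected wells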
YopH inh – YopH (Yersinia) phosphatase inhibition; hit rate 0.16% among 140,000; fluorescence Ex485/Em525; inhibition, %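 (about 10 µM by stock and volumes)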; AID 898;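 active = inhibition of 50% or more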;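 note: controls were vehicle for no effect and minimum signal wells for full effect; inactives centre near -20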
RecA splice inh – blocks M. tuberculosis RecA intein splicing; P9WHJ3; cell-free RecA intein splicing, fluorescence; inhibition, %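 (about 9 µM by stock and volumes)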; hit rate 0.75% among 290,000; AID 2221; in the data active = inhibition above about 30%; inconclusive = no clear call, values can overlap the other calls;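 note: 0% = vehicle wells and 100% = reference inhibitor control wells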
Target sequence (P9WHJ3 whole entry, looked up, canonical isoform): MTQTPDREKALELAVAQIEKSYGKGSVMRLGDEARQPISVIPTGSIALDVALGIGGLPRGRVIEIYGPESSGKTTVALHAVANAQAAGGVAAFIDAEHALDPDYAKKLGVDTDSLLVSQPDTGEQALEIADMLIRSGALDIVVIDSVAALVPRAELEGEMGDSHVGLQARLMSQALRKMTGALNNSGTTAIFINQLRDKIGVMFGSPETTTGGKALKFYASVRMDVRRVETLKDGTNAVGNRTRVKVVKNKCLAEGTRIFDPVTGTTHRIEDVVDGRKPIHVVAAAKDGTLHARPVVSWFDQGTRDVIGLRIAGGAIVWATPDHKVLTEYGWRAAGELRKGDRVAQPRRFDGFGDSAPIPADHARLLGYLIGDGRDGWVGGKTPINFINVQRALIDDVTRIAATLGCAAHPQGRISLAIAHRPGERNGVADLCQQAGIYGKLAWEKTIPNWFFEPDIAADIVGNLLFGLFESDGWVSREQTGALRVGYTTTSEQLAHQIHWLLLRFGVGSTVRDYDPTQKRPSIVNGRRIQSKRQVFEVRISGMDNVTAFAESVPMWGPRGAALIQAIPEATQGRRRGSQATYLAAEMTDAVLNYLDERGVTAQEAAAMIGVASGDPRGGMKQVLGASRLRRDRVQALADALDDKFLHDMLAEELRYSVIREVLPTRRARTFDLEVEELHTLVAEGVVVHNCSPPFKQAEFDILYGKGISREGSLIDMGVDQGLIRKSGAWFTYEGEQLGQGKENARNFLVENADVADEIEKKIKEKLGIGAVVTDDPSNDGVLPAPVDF
Mtb bLac sens – beta-lactam sensitization of Mtb H37Rv. inhibition, % at 25 µM. hit rate 0.27% among 330,000. AID 434955. M. tuberculosis H37Rv growth with meropenem, percent inhibition; hits of this screen are not shown here;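 active = about 74% or more and at least 40 points above the plate without the antibiotic, then above 30% in a dose series; inconclusive = first-round hits that could not be retested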;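 note: growth measured after seven days incubation then overnight dye step; 0% = bacteria only wells and 100% = bacteria with antibiotic; twin plates without the antibiotic show which effects depend on it; some results filed as inactive read as strong as hits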
Arbovirus anti repeat – also measured in Arbovirus anti; calls as there; inhibition, %; measured here: 10K subset replicate screen; many hits read low in the repeat;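 first of two repeat runs on a subset; 0% = infected and 100% = uninfected wells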
Active calls of the source: *; ? = inconclusive; . = no result given. This is a subset (hit frequency here may not be typical).

SMILES	Mtb H37Rv	Arbovirus anti	YopH inh	RecA splice inh	Mtb bLac sens	others
Cc1ccccc1NC(=O)N1CCNC(=O)C1CC(=O)Nc1cc(Cl)ccc1Cl (centres undefined)	.	.	.	-3.1	-10
CC1CCCN(C(=O)C2CCN(S(=O)(=O)c3cccc4nsnc34)CC2)C1 (centres undefined)	.	.	.	0.2	-3
Cc1ccc(S(=O)(=O)/N=c2\ccc(Cl)cn2C(F)F)cc1	-5%	-1	.	1.3	-9
CCOC(=O)c1ccc(NC(=O)c2c(N)n(Cc3ccccc3)c(=O)[nH]c2=O)cc1	-5%	.	.	-0.2	14
Cc1c(S(=O)(=O)N2CCN(C(=O)c3ccco3)CC2)c(=O)n(C)c(=O)n1C	-11%	-2	-52	0.2	-6
Cc1sc2ncnc(NCC3COc4ccccc4O3)c2c1C (centres undefined)	8%	17	-21	-0.5	10
Cc1ccc2[nH]cc(CCNC(=O)c3cccs3)c2c1	.	.	.	-1.4	-1
COc1ccccc1NS(=O)(=O)c1ccc2nc(CCl)[nH]c2c1	.	.	.	14	-4
COc1ccccc1N1CCN(C(=O)CN2C(=O)c3cccc4cccc(c34)C2=O)CC1	-6%	2	.	2.4	-7
O=C(O)c1ccc(NS(=O)(=O)c2cccc3cccnc23)cc1	-5%	12	-34	.	0	Arbovirus anti repeat=0
CCC(CC)C(=O)Oc1c(Sc2ccccc2[N+](=O)[O-])c(C)nn1C(C)(C)C	.	3	-25	16	2
CCOC(=O)NC1(Nc2ccc(Cl)cn2)Oc2ccccc2O1	-1%	7	11	.	.

Among those listed so far, 2 contain an aryl methoxy group:
SMILES	Mtb H37Rv	Arbovirus anti	YopH inh	RecA splice inh	Mtb bLac sens	others
COc1ccccc1NS(=O)(=O)c1ccc2nc(CCl)[nH]c2c1	.	.	.	14	-4
COc1ccccc1N1CCN(C(=O)CN2C(=O)c3cccc4cccc(c34)C2=O)CC1	-6%	2	.	2.4	-7

(more compounds)
SMILES	Mtb H37Rv	Arbovirus anti	YopH inh	RecA splice inh	Mtb bLac sens	others
CC(SC1=NCCN1S(C)(=O)=O)c1ccccc1 (centres undefined)	.	.	.	0.0	-7
Cc1ccc(N(CC(=O)N2CCCCC2)S(=O)(=O)c2ccc(C)cc2)cc1	-10%	-11	.	2.2	0
COc1cc(/C=N/NC(=S)Nc2cccnc2)cc(OC)c1OC	2%	-2	.	-5.1	-2
CC(C)(C)OC(=O)N1CCC[C@H]1c1nnc(SCc2ccc(Cl)cc2)o1	-1%	.	.	2.7	-6
CCCn1c(=N)c(C#N)cc2c(=O)n3ccccc3nc21	0%	5	-40	.	-2
N#CC(c1ccccc1F)(c1ncc(C(F)(F)F)cc1Cl)N1CCOCC1 (centres undefined)	-5%	3	-48	-0.6	-9
O=C(NC1CCS(=O)(=O)C1)c1cc(-c2ccccc2)nc2ccccc12 (centres undefined)	-4%	12	.	0.1	0
CC(C)(C)c1ccc(OCCON2C(=O)CCC2=O)c(Cl)c1	-1%	7	8	-2.1	1
c1ccc2c(NC3=NCCCCS3)cccc2c1	13%	-9	35	1.5	-7
Cc1cccc(NC(=O)c2cc(NC(=O)CCCC(=O)O)ccc2Cl)n1	4%	4	5	-0.1	-12
O=C(COC(=O)C1=COCCO1)Nc1c(F)cccc1F	.	.	.	-2.3	34
C=CCn1c(=O)c(C(=O)NCc2ccc3c(c2)OCO3)c(O)c2ccccc21	.	.	.	-1.0	3
O=C(c1ccccc1)N1CCN(c2ccc([N+](=O)[O-])cc2-n2cccc2)CC1	4.2µM*	.	.	14	95
COc1ccc(/C=C/C(=O)OCCCN(C)C)cc1	3%	4	.	-1.5	50
O=C(Nc1nccs1)c1cccc(NC(=O)C(F)(F)F)c1	5%	.	.	.	2
O=C(Oc1cccc2c(OC(=O)N3CCOCC3)cccc12)N1CCOCC1	0%	10	15	-4.5	-22
O=C(NCC1CCCCC1)c1cccc([N+](=O)[O-])c1	.	.	.	-0.1	0
COc1cc2c(=O)n(Cc3ccccc3)c(=O)n(CC(=O)C(C)(C)C)c2cc1OC	7%	.	.	1.6	-1
CC(=O)Nc1cccc(NC(=O)c2cc(-c3cccnc3)nc3ccc(Cl)cc23)c1	-3%	5	.	-0.2	4
Cc1cccc(NC(=O)CN2CCN(CC(=O)Nc3ccc(-c4ccccc4)cc3)CC2)c1C	.	.	.	0.9	4
COc1ccc(NC(=O)c2ccc(-c3ccccc3)cc2)cc1NS(=O)(=O)c1ccc(F)cc1	11%	-21	-18	3.0	0
COc1ccc(S(=O)(=O)Nc2cc3[nH]c(=O)oc3cc2C)cc1	.	.	.	0.8	?
O=c1c2ccccc2ncn1-c1ccc([N+](=O)[O-])c(C(F)(F)F)c1	-3%	-8	-15	-0.3	3
C=C(C)c1ccccc1NC(=O)CCN1C(=O)c2ccccc2S1(=O)=O	.	.	.	2.6	0

An excerpt from further up, for reference:
SMILES	Mtb H37Rv	Arbovirus anti	YopH inh	RecA splice inh	Mtb bLac sens	others
Cc1cccc(NC(=O)CN2CCN(CC(=O)Nc3ccc(-c4ccccc4)cc3)CC2)c1C	.	.	.	0.9	4
COc1ccc(NC(=O)c2ccc(-c3ccccc3)cc2)cc1NS(=O)(=O)c1ccc(F)cc1	11%	-21	-18	3.0	0
COc1ccc(S(=O)(=O)Nc2cc3[nH]c(=O)oc3cc2C)cc1	.	.	.	0.8	?
O=c1c2ccccc2ncn1-c1ccc([N+](=O)[O-])c(C(F)(F)F)c1	-3%	-8	-15	-0.3	3
C=C(C)c1ccccc1NC(=O)CCN1C(=O)c2ccccc2S1(=O)=O	.	.	.	2.6	0

Compounds listed so far with a thiophene ring, fused or not:
SMILES	Mtb H37Rv	Arbovirus anti	YopH inh	RecA splice inh	Mtb bLac sens	others
Cc1sc2ncnc(NCC3COc4ccccc4O3)c2c1C (centres undefined)	8%	17	-21	-0.5	10
Cc1ccc2[nH]cc(CCNC(=O)c3cccs3)c2c1	.	.	.	-1.4	-1

Continued.
SMILES	Mtb H37Rv	Arbovirus anti	YopH inh	RecA splice inh	Mtb bLac sens	others
CCOC(=O)CN1C(=O)N[C@@H](c2ccccc2)C(C(=O)OC)=C1C	-1%	7	-30	.	-6
CCOC(=O)c1ccc(NC(=S)Nc2cc(C)cc(C)n2)cc1	?	3	.	0.9	62
O=c1[nH]c(=O)n(CCc2ccccc2)c(O)c1C=NCCN1CCNCC1	.	6	-18	0.8	-13
Cc1cc(C(=O)Nc2ccc(OCc3ccccc3)cc2)c(C)o1	9%	-22	.	3.9	56
O=C(COC(=O)CCC(=O)c1ccccc1)NNC(=O)c1ccc(Cl)cc1	.	.	.	-0.2	7
O=C(O)CN1C(=O)/C(=C/c2ccccc2Cl)Oc2ccccc21	.	.	.	-1.6	-7
CN(C(=O)Cn1cnc([N+](=O)[O-])n1)C1CCCCC1	.	.	.	2.6	2
COc1ccc(NC(=S)NCCCN2CCCC2)cc1	1%	5	.	-0.7	-4
Cc1[nH]n(C(C)(C)C)c(=O)c1Sc1ccc(Cl)cc1	-6%	7	-1	-2.1	0
CS(=O)(=O)c1ccc(NCCc2ccccn2)c([N+](=O)[O-])c1	.	.	.	0.8	2
Cc1[nH]c2ccccc2c1C(=O)CN1C(=O)NC(C)(c2ccc(Cl)cc2Cl)C1=O (centres undefined)	76%	-15	-39	5.3	68
CCOc1ccc(OCC)c(NC(=O)C2CCN(S(=O)(=O)c3c(C)noc3C)CC2)c1	6%	2	-16	-1.0	-8
CC(=O)Nc1c(C)ccc(CNC(=O)COc2cc(C)ccc2C)c1C	3%	-2	-14	0.2	-3
Cc1ccc2c(c1)CCCN2S(=O)(=O)c1cccc(C(=O)Nc2ccccc2C(=O)O)c1	.	.	.	18	-23
CCc1c(C)c2c(C)nn(-c3ccccc3)c2[nH]c1=O	-6%	1	-6	.	1	Arbovirus anti repeat=1
COc1ccc(C)cc1NS(=O)(=O)c1ccc(NC(=O)CN(c2cc([N+](=O)[O-])ccc2C)S(C)(=O)=O)cc1	22%	-25	7	0.0	6
CC1=C/C(=C\C=C(C#N)C#N)N(C)c2ccccc21	3%	.	.	.	-1
Cc1cc2cc3c(cc2nc1SCC(=O)O)OCCO3	2%	-1	-27	.	-9
COc1ccc(NS(=O)(=O)c2ccc(NC(=S)NC(=O)c3ccc(Br)cc3)cc2)nn1	7%	3	-6	1.5	-4
CCOC(=O)C1CN(c2cc3c(cc2F)c(=O)c(C(=O)O)cn3CC)OC1C(=O)OCC (centres undefined)	-2%	1	-36	0.9	13
CC(=O)NS(=O)(=O)c1ccc(NC(=S)Nc2ccccc2)cc1	.	.	.	-1.0	-6
Cc1cnc(NC(=O)CSc2ncc(-c3ccccc3)n2Cc2ccco2)s1	-4%	6	-49	-2.5	-5
CCOC(=O)C1CCCN(C2CC(=O)N(c3ccc(NC(C)=O)cc3)C2=O)C1 (centres undefined)	-2%	3	.	0.5	-4
CCNC(=O)COC(=O)CCNC(=O)c1ccc(Cl)cc1	.	.	.	-1.3	-12
CC1CCC(NC(=O)c2cnccn2)CC1 (centres undefined)	-8%	7	-5	-1.3	-5
CC1CC(=O)N(CC(=O)NCc2ccc(F)cc2)c2ccccc2S1(=O)=O (centres undefined)	.	.	.	2.0	-8
O=C(NCc1ccccn1)c1ccc(Cn2c(=S)[nH]c3ccccc3c2=O)cc1	-1%	-8	.	-0.1	-4
O=S(=O)(NCCSCc1ccc(Cl)c(Cl)c1)c1ccc2c(c1)OCCO2	-6%	.	-15	-1.1	-6
O=C(O)/C(=C\c1ccc(Cl)c([N+](=O)[O-])c1)c1ccc(S(=O)(=O)N2CCCCC2)s1	-6%	28	.	15	-14
CCOc1ncccc1C(=O)OCC(=O)Nc1nnc(-c2ccccc2)o1	.	.	.	3.5	50
Cc1cc(C)c(NC(=O)CCn2nnc3ccccc32)c(C)c1	-3%	-1	.	1.0	-13
CCCn1nc(NC(=O)c2ccncc2)c2cc3ccccc3nc21	20%	0	-15	-13	12
CCOC(=O)[C@@H]1[C@H]2COc3ccccc3[C@H]2N2C(=O)N(c3cccc(Cl)c3)C(=O)[C@@]12C	.	.	.	8.5	-1
COc1ccc(/C=C(/NC(=O)c2ccccc2)C(=O)N/N=C/c2ccc3c(c2)OCO3)cc1OC	3%	-3	4	.	.
CC(OC(=O)CNC(=O)c1ccccc1F)C(=O)Nc1nc(-c2ccccc2)cs1 (centres undefined)	1%	-2	-12	4.1	0
COc1cc([N+](=O)[O-])cc2cc(C(=O)N3CCCC3)c(=O)oc12	2%	-5	.	0.2	16
Cc1c(NC(=O)c2ccc3c(c2)OCO3)c(=O)n(-c2ccccc2)n1C	-5%	3	-18	0.1	-1	Arbovirus anti repeat=4
CC(C)c1ccc(-c2noc(C3CCCN(S(C)(=O)=O)C3)n2)cc1 (centres undefined)	1%	12	-25	-1.1	6
COc1cc(/C=C2/C(=O)NN(c3cccc(C)c3)C2=O)cc([N+](=O)[O-])c1O	7%	-28	.	-9.9	6
CCN(CC)Cc1cc(C(C)=O)ccc1OCC(C)C	-1%	-5	-11	-0.2	0
CCn1nnc(NC(=O)C(C)Oc2ccc(Cl)cc2Cl)n1 (centres undefined)	-4%	1	0	0.6	-5
CC(C)C(C(=O)Nc1ccncc1)c1ccc(Cl)cc1 (centres undefined)	.	.	.	3.0	-1
Cc1cccc(Nc2nc(N)nc(CC(=O)CSc3ccc(Cl)cc3)n2)c1	11%	-16	-40	-2.4	24
CSc1nc(SC(C)C(=O)O)c2c3c(sc2n1)COC(C)(C)C3 (centres undefined)	-6%	.	.	-0.5	-5
COc1ccc(N2CCN(S(=O)(=O)c3ccc(Cl)c(C(F)(F)F)c3)CC2)cc1	-2%	0	-27	-1.4	-18
Cc1ccc(/C=C/C(=O)N2CCN(c3ccc(F)cc3)CC2)o1	-2%	7	-23	1.4	-5
C=CCNC(=O)C(C)N1C(=O)c2ccccc2C1=O (centres undefined)	-10%	5	18	-1.1	-2
Cc1ccc(NC(=O)Cn2nnc(C(=O)NCc3ccco3)c2N)c(C)c1	.	.	.	-1.3	4

Structural class: the compounds so far with a cyano group
SMILES	Mtb H37Rv	Arbovirus anti	YopH inh	RecA splice inh	Mtb bLac sens	others
CCCn1c(=N)c(C#N)cc2c(=O)n3ccccc3nc21	0%	5	-40	.	-2
N#CC(c1ccccc1F)(c1ncc(C(F)(F)F)cc1Cl)N1CCOCC1 (centres undefined)	-5%	3	-48	-0.6	-9
CC1=C/C(=C\C=C(C#N)C#N)N(C)c2ccccc21	3%	.	.	.	-1

(continued)
SMILES	Mtb H37Rv	Arbovirus anti	YopH inh	RecA splice inh	Mtb bLac sens	others
CCn1c(-c2nn(-c3ccccc3)ccc2=O)n[nH]c1=S	5%	16	.	-2.0	-5
CC(=O)NCC(=O)N(C)C(C(=O)Nc1ccc(C(C)C)cc1)c1ccccc1 (centres undefined)	-5%	5	4	2.1	-1
O=[N+]([O-])c1cccc(N(CC(O)CN2CCCC2)S(=O)(=O)c2ccccc2)c1 (centres undefined)	.	.	.	0.7	-6
CCOc1cc(S(=O)(=O)NCCN2CCOCC2)c(C)cc1C	0%	3	-104	0.5	-5
